# Compound activity (PubChem)
# Vaccinia mCherry = inhibitors of vaccinia virus infection (mCherry reporter signal). Vaccinia virus mCherry reporter infection, fluorescence; about a quarter of the inactives have no number. Potency, µM (titrated, usually from 36.5 µM), for the others: top-dose activity change, negative = inhibition, usual class: inhibitors. 310,000 tested, 0.63% active. AID 720579; active = well fitted inhibition curve with a large enough effect; inconclusive = small, poorly fitted or top-dose-only effect; inactive = no such curve, though single readings can be large or run the other way; tested in A549 cells; further: nearly all actives have a fitted effect of over 35% in size; inactives centre near -10
# VACV Venus inh = inhibitors of vaccinia virus (Venus reporter); Vaccinia virus Venus reporter expression, fluorescence; Potency, µM (series often up to 36.5 µM), for inactives: top-dose activity change, negative = inhibition, actives largely listed as inhibitors; 330,000 tested, 0.46% active; active means well fitted inhibition curve with a large enough effect; inconclusive means small, poorly fitted or top-dose-only effect; inactive means no such curve, though single readings can be large or run the other way; tested in A549 cells; further: nearly all actives have a fitted effect of over 30% in size; inactives centre near -10
# * marks the source's active call; other numbers are inactive results; i = inactive; ? = inconclusive; · = not tested or not shown; & = joins results of further samples; [ ] = remark or other dose. On the % scale 0 is the no-effect control and ±100 the full control effect; potency means the concentration at half of the fitted maximal effect. Rows are unselected; 0.82% or so of the library scored in one or more.
SMILES,Vaccinia mCherry,VACV Venus inh
COc1ccc(F)cc1S(=O)(=O)NCC(c1ccco1)S(=O)(=O)c1ccc(F)cc1 (stereo unspecified),i,-16%
COc1ccc(C)cc1S(=O)(=O)N1CCC(C(=O)NCCc2ccccc2)CC1,-23%,-13%
Cc1ccc(NC(=O)CNc2ccccc2N2CCCC2=O)cc1S(=O)(=O)N1CCCCC1,-18%,-21%
CCc1nc2c(oc3ccccc32)c(=O)[nH]1,·,-11%
CCCC1Cc2c(sc(N)c2C#N)CO1 (stereo unspecified),?,-9%
CC(=O)C1=C(O)C(=O)N(c2ccc(S(N)(=O)=O)cc2)C1c1cccc([N+](=O)[O-])c1 (stereo unspecified),-6%,-17%
Cc1ccc(-c2nc3ccccc3c(=O)n2NC(=O)COc2ccccc2)cc1,-13%,-8%
Cn1nc(C(=O)NC2CCCN(Cc3ccccc3F)C2)c2ccccc2c1=O (stereo unspecified),-15%,-12%
Cc1ccccc1CN1[C@@H]2c3ccccc3C[C@@H]2OCCS1(=O)=O,i,-10%&-18%
CS(=O)(=O)N(CC(=O)NCc1ccncc1)c1ccc(Cl)c(Cl)c1,-16%,-6%
Cc1ccc(NC(=O)CN(C)C(=O)COC(=O)c2ccc(NC(=O)CC#N)cc2)cc1,-21%,-8%
CCC/C(C#Cc1ccc(N(C)C)cc1)=C1/c2ccccc2C(=O)N1c1ccccc1,i,2%
CCc1ccc(NC(=O)CN2CCC(C(=O)c3ccc(OC)cc3)CC2)cc1,i,-1%
CCOC(=O)c1c(C)oc2nc(C)nc(NC(C)c3ccccc3)c12 (stereo unspecified),-18%,-21%
Cc1cc(-c2ccnc(-n3ncc(C(=O)NCC4CCCO4)c3C3CC3)n2)c(C)s1 (stereo unspecified),-18%,3%
NS(=O)(=O)c1cccc(NC(=O)Cn2cc(C(F)(F)F)cc(Cl)c2=O)c1,-28%,-6%
O=C1NC[C@H](CCCCN2C[C@H](Cc3ccc(O)cc3)N(CCC3CCCCC3)C(=O)C2=O)N(CCc2ccccc2)C1=O,-4%,-6%
COc1ccc(-c2cc(C(=O)N3CCN(S(=O)(=O)c4ccccc4)CC3)[nH]n2)cc1,i,-5%
CCC(C)NS(=O)(=O)c1ccc(S(=O)(=O)N(CC(=O)Nc2ccccc2)Cc2ccco2)cc1 (stereo unspecified),-12%,-21%
CCOc1ccc(N2CC(NC(=O)c3cccc4ccccc34)CC2=O)cc1 (stereo unspecified),?,-6%
CN=C1c2cc3cc(OC)ccc3n2CCN1Cc1ccccc1,?,-27%
CC(C)C(=O)Nc1ccc(C(=O)Nc2nnc(C(C)(C)C)s2)cc1,-15%,-8%
NS(=O)(=O)c1ccc(NC(=S)NC(=O)/C=C/c2ccco2)cc1,-14%,-5%
CCc1ccc2ncc(C(=O)c3ccccc3)c(N3CCOCC3)c2c1,i,-28%
CCOCCc1nnc(NC(=O)c2cc(OC)c(OC)cc2[N+](=O)[O-])s1,0%,-10%
COc1ccc(S(=O)(=O)n2nc(OC(=O)c3c(-c4ccccc4Cl)noc3C)cc2N)cc1,-12%,-27%
COc1cc(OC)cc(-c2cc3nc(C)c(CCC(=O)NCCc4cccc(C)c4)c(C)n3n2)c1,-16%,-8%
CCc1ccccc1-n1cnc2cc(C(=O)O)ccc21,·,-21%
O=C(c1cccs1)N1C[C@H](n2cc(-c3ccc(F)cc3)nn2)[C@@H](O)C[C@@H]1c1ccc(Cl)cc1,-6%,?
C=C1c2cc(CC)ccc2NC(=O)N1c1ccc(C)cc1,-3%,3%
O=C1Nc2ccccc2-n2nnnc2C1N1CCCN(Cc2ccc(F)cc2)CC1 (stereo unspecified),-12%,-1%
CN(CC(=O)NC(c1ccccc1)c1ccccc1)Cc1nc2ccccc2c(=O)[nH]1,-13%[1.46 µM],-20%
CCOC(=O)CN(c1ccccn1)S(=O)(=O)c1ccc(OC)cc1,-1%,-5%
Clc1ncc(C#Cc2ccccc2)c2ncncc12,-13%,-12%
Cc1ccc(Cn2nc(C)c(NC(=O)CSc3n[nH]c(C)c3[N+](=O)[O-])c2C)cc1,i,-12%
Cc1oc(-c2ccccc2F)nc1CN1CCC(C(=O)NCCc2ccc(Cl)cc2)CC1,-21%,-15%
O=C(Nc1ccccc1)/C(=C\c1ccncc1)NC(=O)c1ccccc1,-7%,-3%
COC(=O)c1cc(C)ccc1/C=C1/Cc2c(C)cc(C)cc2C1=O,-5%,-9%
CCCC(O)(CCC)C(=O)NNc1ccccc1,·,0%
COc1ccccc1Oc1nc([N+](=O)[O-])nn1CC(N)=O,-1%,6%
CCCNS(=O)(=O)c1ccc(OCC(=O)N2CCN(c3ccccc3)CC2)cc1,-10%,0%
CS(=O)(=O)Nc1cccc(NC(=O)C2Cc3c(-c4ccco4)ccnc3O2)c1 (stereo unspecified),1%,-22%
CN(C)N1C(=O)CC(N2CCCC2)C1=O (stereo unspecified),-6%,-3%
COc1ccc(CCCNC(=O)C2Cc3c(-c4cccc(C(N)=O)c4)ccnc3O2)cc1 (stereo unspecified),-9%,-21%
COc1ncccc1-c1nnn(-c2ccccc2Br)n1,i,-8%
O=C1c2ccccc2C(Nc2ccccc2)N1Cc1ccc2c(c1)OCO2 (stereo unspecified),-18%,3%
Brc1ccccc1-c1ccccc1,-1%,-15%
Cc1ccsc1C(=O)NCCc1c[nH]c2ccccc12,-19%,-22%
O=C(COC(=O)COc1ccc(Cl)cc1)NCc1cccs1,-15%,-2%
CC(C)c1ccc([C@@H]2O[C@H](C)CC3=C2C(=O)OC(C)(C)O3)cc1,27%,-1%
# Carrying on.
SMILES,Vaccinia mCherry,VACV Venus inh
CCOC(=O)N1CCC(N2C(=O)c3ccccc3C2Nc2cccnc2)CC1 (stereo unspecified),i,-1%
Cc1ccc(C(=O)Nc2cccc(C(F)(F)F)c2)cc1NC(=O)c1ccno1,-14%,-13%&-12%
Cc1ccccc1-c1nc(-c2ccc(NC(=O)c3cccs3)cc2)no1,-28%,-25%
Cc1cc(N=CC2=C(O)CCCC2=O)no1,-27%,-11%
CCOC(=O)[C@@H]1[C@H]2COc3ccc(Br)cc3[C@H]2N2C(=O)N(c3cccc(Cl)c3)C(=O)[C@]12C,i,-17%
O=C1C=C(c2ccc3ccccc3c2)C[C@@H](c2ccc(F)cc2)C1,-8%,-1%
CCOC(=O)C1(Cc2cccc(OC)c2)CCCN(C(=O)c2ccccc2C)C1 (stereo unspecified),-3%,-3%
CN=c1oc2ccc(Cl)cc2cc1C(N)=O,-13%,-12%
Cc1cc(C)cc(NC(=S)NCc2ccncc2)c1,-1%,-16%
Cc1cccc(NC(=O)C2CCN(c3cnccn3)CC2)c1,-8%,-7%
CN(C)c1cccc(Nc2ccc(-c3ccc(OC(F)(F)F)cc3)cn2)c1,i,2%
COc1ccccc1N1CCN(C(=O)CCCCCn2c(=S)[nH]c3cc4c(cc3c2=O)OCO4)CC1,-19%,?
Cc1nc(CCNC(=O)C2CCC(=O)N(CCc3cccc(F)c3)C2)sc1C (stereo unspecified),-17%,-9%
CC(C)c1nc(N2CCN(C(=O)c3ccco3)CC2)c(C#N)c2c1COC(C)(C)C2,i,-15%
OC(c1ccc(F)cc1)c1ncc(-c2ccccc2Cl)[nH]1 (stereo unspecified),i,1%
Cc1ccc2oc(=O)c3cnn(CC(=O)NCCc4ccsc4)c3c2c1,?,?
CCOC(=O)[C@]12CCCC=C1N(Cc1ccco1)C(=O)[C@H](CC(=O)N1CCCCC1)C2,13%,2%
O=C(Cn1c(=O)c2cccn2c2ccccc21)NCCc1ccccc1,3%,-8%
COc1ccc2cnn(-c3ccccc3)c(=O)c2c1OC,-16%,6%
COC(=O)C1=C(C(=O)c2ccc(C)cc2)C(c2ccccc2)n2nnnc2N1 (stereo unspecified),·,3%
CCOc1ccc(NC(=S)NC(=O)/C=C/c2ccc(OC)cc2)c([N+](=O)[O-])c1,i,-13%
Cc1ccc(-c2cc(C(F)F)nc(N3CCOCC3)n2)cc1,-5%,?
Cc1ccnc(NC(NC(=O)C(C)C)(C(F)(F)F)C(F)(F)F)c1,-26%,-9%
CCOc1ccc(CCNS(=O)(=O)c2cc3c(cc2C)NC(=O)CO3)cc1OCC,i,-12%
Cc1onc(-c2ccccc2Cl)c1C(=O)Oc1ccc(Cl)cc1Cl,-13%,-12%
O=C(NNC(=O)c1ccccc1Cl)c1cc2cc(OC(F)(F)F)ccc2[nH]1,-20%,-16%
Cc1nn(-c2ccccc2)c2c1N(CC(=O)N1CCN(c3cccc(Cl)c3)CC1)C(=O)CS2,8%,3%
C/C(CC(=O)Nc1ccccn1)=N\NC(=O)c1ccc2ccccc2c1,-19%,-6%
O=C(/C=C/c1ccc(Br)cc1)NC(=S)NNC(=O)c1ccco1,-23%,-11%
CCCC(=O)NC(=S)Nc1ccc(N2CCN(C(=O)c3cccs3)CC2)cc1,-2%,-4%
CCCCNC(=O)/C(C#N)=C/c1cccnc1,i,0%
COc1ccccc1OC(C)C(=O)Nc1ccc(S(=O)(=O)Nc2nccs2)cc1 (stereo unspecified),-13%,-12%
COc1cc2cc(Oc3ccc4ccc(=O)oc4c3)c(=O)oc2cc1OC(C)=O,-1%,11%
CCN(CC)CCN1CCN(c2cncc(-c3ccc4ccccc4c3)n2)CC1,9%,-9%
Cc1ccc(S(=O)(=O)NCC(=O)OCC(=O)Nc2ncc(Cl)cc2Cl)cc1,·,-5%
Cc1cc(S(=O)(=O)N2CCCCC2CCNC(=O)C(=O)NCC2CCCO2)ccc1F (stereo unspecified),-21%,-17%
CN1CC[C@@]2(C)c3cc(O)ccc3N(C)[C@@H]12,-5%&-14%,2%&12%
COc1ccc(NC(=O)CSCC(=O)Nc2cc(Cl)ccc2N2CCOCC2)cc1,i,-21%
CCn1nnc(NC(=O)c2cccnc2Cl)n1,-15%,0%
Cc1cnccc1CNC(=O)CC1C(=O)NCCN1CC(C)(C)C (stereo unspecified),i,-1%
Cc1cc(C(=O)CSc2nnnn2-c2ccccc2)c(C)n1CCc1ccccc1,-10%,-11%
O=C(c1ccccc1)N1CCN(C(=O)N2CCCCC2)CC1,·,-5%
CCC(=O)Nc1ccc(NC(=O)CSc2nnnn2C2CCCC2)cc1C,-10%,12%
C/C(=N/NC(=O)c1cccs1)c1cccc(N)c1,i,0%
O=C(Nc1nccs1)c1cc2sccc2n1Cc1ccc(Cl)cc1,i,-9%
Cc1ccc(Sc2ncccc2COC(=O)Nc2ccccc2)cc1,·,-22%
CCN1CCCC(OC(=O)c2cc(-c3ccccc3Cl)nc3ccccc23)C1 (stereo unspecified),i,-20%
Cc1cccc(N2C(=O)CCSC23C(=O)N(Cc2ccc(F)cc2)c2ccccc23)c1 (stereo unspecified),?,-30%
Cc1ccccc1CN1C(=O)c2ccccc2S(=O)(=O)c2ccc(C(=O)OCC3CCCO3)cc21 (stereo unspecified),-14%,-11%
COCCNC(=S)Nc1cc2oc3ccccc3c2cc1OC,-21%,-29%

# 15 neighbouring compounds already listed, for reference:
SMILES,Vaccinia mCherry,VACV Venus inh
CCN(CC)CCN1CCN(c2cncc(-c3ccc4ccccc4c3)n2)CC1,9%,-9%
Cc1ccc(S(=O)(=O)NCC(=O)OCC(=O)Nc2ncc(Cl)cc2Cl)cc1,·,-5%
Cc1cc(S(=O)(=O)N2CCCCC2CCNC(=O)C(=O)NCC2CCCO2)ccc1F (stereo unspecified),-21%,-17%
CN1CC[C@@]2(C)c3cc(O)ccc3N(C)[C@@H]12,-5%&-14%,2%&12%
COc1ccc(NC(=O)CSCC(=O)Nc2cc(Cl)ccc2N2CCOCC2)cc1,i,-21%
CCn1nnc(NC(=O)c2cccnc2Cl)n1,-15%,0%
Cc1cnccc1CNC(=O)CC1C(=O)NCCN1CC(C)(C)C (stereo unspecified),i,-1%
Cc1cc(C(=O)CSc2nnnn2-c2ccccc2)c(C)n1CCc1ccccc1,-10%,-11%
O=C(c1ccccc1)N1CCN(C(=O)N2CCCCC2)CC1,·,-5%
CCC(=O)Nc1ccc(NC(=O)CSc2nnnn2C2CCCC2)cc1C,-10%,12%
C/C(=N/NC(=O)c1cccs1)c1cccc(N)c1,i,0%
O=C(Nc1nccs1)c1cc2sccc2n1Cc1ccc(Cl)cc1,i,-9%
Cc1ccc(Sc2ncccc2COC(=O)Nc2ccccc2)cc1,·,-22%
CCN1CCCC(OC(=O)c2cc(-c3ccccc3Cl)nc3ccccc23)C1 (stereo unspecified),i,-20%
Cc1cccc(N2C(=O)CCSC23C(=O)N(Cc2ccc(F)cc2)c2ccccc23)c1 (stereo unspecified),?,-30%

# Following part:
SMILES,Vaccinia mCherry,VACV Venus inh
COc1ccc(/C=C(/NC(=O)c2ccccc2)C(=O)N/N=C/c2ccncc2)c(OC)c1,i,-5%
Cc1ccccc1Nc1nccc(N(C)C)c1C#N,-5%,1%
CC1(C)Cc2cccc(OCC(N)=O)c2O1,·,-14%
COC(=O)c1ccc2cn[nH]c2c1,i,-10%
COc1ccccc1-c1noc(-c2ccncc2)n1,·,-11%
COc1ccc([N+](=O)[O-])cc1COc1ccc2c(-c3ccccc3)cc(=O)oc2c1,-13%,1%
CC(C)Oc1ccc(F)cc1-c1cc(C(=O)Nc2ccccc2)[nH]n1,-2%,6%
Cc1ccccc1CNC(=O)c1ccc2nc(SCc3ccc(F)cc3)n(C)c2c1,-22%,-8%
Cn1cc(/C=C/c2cc[n+](C)cc2)c2cc(F)ccc21,-17%,-16%
C[C@@H]1O[C@@H](O[C@@H]2[C@@H](O)[C@H](OCCc3ccc(O)c(O)c3)O[C@H](CO)[C@H]2OC(=O)/C=C/c2ccc(O)c(O)c2)[C@H](O)[C@H](O)[C@H]1O,i,0%
